# RanGTP-Impb inh – disruptors of Ran-importin-beta complex formation – biochemical, FRET, CFP-Ran, YFP-importin-beta, homogeneous, primary screen; cell-free CFP-Ran/YFP-importin-beta FRET ratio; 300,000 compounds, 1.1% hits; inhibition, % (test concentration not listed);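 active = most replicates above 15%; inconclusive = exactly half above 15%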;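 note: 0% = DMSO wells and 100% = Ran loaded with GDP instead of GTP; wells of about 40 µL received 100 nL stock; the first replicate is given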
# HNF4A DNA FP – change in binding of human HNF4 alpha to DNA; AID 1224865; activity change, % at 10 µM; 360,000 compounds, 0.3% hits; HNF4a-FITC DNA binding, fluorescence polarization, 1 h; in the data active = activity change above about 30%, passing the limit was not always enough;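 note: controls were the assay level and a saturating level of protein; the project sought stronger binding though the title names inhibitors; some compounds called inactive have numbers as strong as hits; positive values seem to mean higher polarization but the record does not say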
# Target sequence (P41235 whole entry, looked up): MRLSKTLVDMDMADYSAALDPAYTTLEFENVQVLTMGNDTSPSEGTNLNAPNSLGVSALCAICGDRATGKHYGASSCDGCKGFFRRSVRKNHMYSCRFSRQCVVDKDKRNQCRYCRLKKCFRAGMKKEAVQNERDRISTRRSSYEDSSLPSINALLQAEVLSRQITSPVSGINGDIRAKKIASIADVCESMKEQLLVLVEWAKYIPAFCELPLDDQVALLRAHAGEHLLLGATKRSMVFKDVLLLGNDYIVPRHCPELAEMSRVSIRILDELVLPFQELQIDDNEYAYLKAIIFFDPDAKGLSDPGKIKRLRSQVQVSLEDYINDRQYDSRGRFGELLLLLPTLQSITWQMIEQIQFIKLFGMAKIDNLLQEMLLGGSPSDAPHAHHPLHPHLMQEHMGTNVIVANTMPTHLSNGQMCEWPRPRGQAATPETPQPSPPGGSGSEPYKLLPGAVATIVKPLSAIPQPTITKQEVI
# B2AR ag – activates human beta-2 adrenergic receptor causing internalization | Am2.2-beta2AR cells, FAP receptor internalization, flow cytometry; reference of the scale not given here | response, % (concentration not given with the values) | 340,000 compounds, 0.43% hits | AID 504454;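 active = response above a set limit, near 3 SD of response in nonfluorescent compounds, cut at about 42% in these data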;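 note: stock transfer was 100 nL into about 11 µL; a reference agonist was the positive control; negative values mostly stem from fluorescent compounds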
# Target sequence (P07550 whole entry, looked up): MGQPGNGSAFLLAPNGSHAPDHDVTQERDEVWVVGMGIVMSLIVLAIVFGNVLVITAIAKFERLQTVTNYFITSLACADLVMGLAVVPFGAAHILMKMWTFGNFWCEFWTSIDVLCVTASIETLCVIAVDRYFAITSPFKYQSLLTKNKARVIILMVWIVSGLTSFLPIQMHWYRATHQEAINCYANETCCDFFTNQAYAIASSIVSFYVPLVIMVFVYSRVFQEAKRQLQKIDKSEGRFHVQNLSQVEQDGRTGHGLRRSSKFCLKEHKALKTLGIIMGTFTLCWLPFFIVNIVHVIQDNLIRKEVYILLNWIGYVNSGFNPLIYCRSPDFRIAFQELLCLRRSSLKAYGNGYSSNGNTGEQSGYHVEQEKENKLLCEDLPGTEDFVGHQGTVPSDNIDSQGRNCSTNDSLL
# Calb FLC – affects C. albicans growth with fluconazole. C. albicans CaCi-2 (fluconazole-resistant clinical isolate) + fluconazole, Alamar Blue growth, 48 h. growth inhibition, % (concentration not given with the values). 300,000 compounds, 0.57% hits. AID 1979;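 active = most replicates above 75%; inconclusive = exactly half above 75%; inactive = most below 75%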;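 note: all wells also contain fluconazole at 8 µg/ml as a sub-toxic cotreatment; 0% = median of DMSO wells and 100% = median of geldanamycin control wells; wells of about 8 µL received 7.5 nL stock; the first replicate is given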
# Vif A3G – inhibitors of Vif binding to APOBEC3G peptide, primary screen, biochemical, TR-FRET, GST-Vif 1-94, biotin-A3G peptide, dose response retest (AID 1117319); 260,000 compounds, 0.57% hits; inhibition, %; hits with a dose series show IC50 in µM; TR-FRET GST-Vif / biotin-A3G peptide binding; higher % means a stronger effect; test concentration not given here; strong numbers were not always called active;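 active = above the screen mean plus three standard deviations and confirmed in dose response; inconclusive = results disagree or hit not tested in dose response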;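 note: Vif residues 1-94 fused to GST binding biotinylated APOBEC3G peptide 110-148; 0% = full assay without inhibitor and 100% = GST in place of GST-Vif; retest series ran down from 100 µM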
# ALR inh – human ALR oxidase inhibition via reduced H2O2 | P55789 | purified ALR, DTT oxidation, H2O2 HRP-luminol luminescence | inhibition, % (concentration not given with the values) | 290,000 compounds, 3.8% hits | AID 485317;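 active = mean and each replicate at 75% or more; inconclusive = only one of the two met; inactive = neither met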;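 note: stock transfer was 7.5 nL into about 7.5 µL; 0% = neutral wells and 100% = wells with inactivated enzyme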
# LANA-H2A inh – blocks KSHV LANA binding to histone H2A/H2B; Q9QR71; cell-free LANA-H2A/H2B peptide, fluorescence polarization; inhibition, % (concentration not given with the values); 320,000 compounds, 0.6% hits; AID 2629; in the data active = inhibition mostly above about 10%, no sharp cut-off; inactive = mostly below about 6.7%;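 note: stock transfer was 7.5 nL into about 10 µL; 0% = median of vehicle wells and 100% = median of positive control wells; one replicate is shown; the record names a cut of 25% in any replicate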
# Numbers without * were called inactive; ? = inconclusive; . = no result given.
SMILES,RanGTP-Impb inh,HNF4A DNA FP,B2AR ag,Calb FLC,Vif A3G,ALR inh,LANA-H2A inh
Cc1cc(OC(=O)C(c2ccccc2)c2ccccc2)c([N+](=O)[O-])c(=O)[nH]1,.,-3.6,1,.,-5%,7,-6.4
COC(=O)c1c(NC(=O)c2nc3ccccc3s2)sc2c1CC(C)(C)NC2(C)C,4.3,2.9,-5,-4,-6%,-11,-2.4
O=C(CCCO)N/N=C/c1cc(Br)ccc1O,3.6,3.5,1,-31,0%,10,2.1
O=C(NCCc1c[nH]c2ccccc12)c1ccccc1,?,-0.8,8,2,-2%,.,-1.2
CCCc1cc(=O)oc2cc(C)cc(OC(C)C(=O)NCCN3CCOCC3)c12 (centres undefined),1.3,1.1,14,-7,.,-4,-2.3
CCCn1c(SC(C)C(=O)O)nc2ccccc21 (centres undefined),?,1.2,0,20,0%,-3,1.6
N#Cc1ccsc1NC(=O)CSc1nnc(-c2ccccc2)o1,1.5,2.7,-2,12,?,37,-1.8
CN1CCN(S(=O)(=O)c2ccc([N+](=O)[O-])cc2)CC1,-1.3,-0.8,2,0,.,-26,8.8
CCCNC(=O)Cc1cc(=O)[nH]c(=O)[nH]1,1.2,1.5,16,1,-4%,-8,0.3
Cc1nc(SCC(=O)N2CCN(C(=O)c3ccco3)CC2)c2c(C)c(C)sc2n1,0.6,-1.6,-13,-7,-38%,-7,-27
CC1CCCC(C)N1C(=O)c1cc(-c2ccc(Cl)c(Cl)c2)on1 (centres undefined),4.8,-2.0,-1,-4,?,0,-2.3
O=C(Cn1ncc2c(=O)oc3ccccc3c21)N1CCc2ccccc2C1,-0.1,-2.5,1,-3,?,-8,-1.0
Nc1cc2ccccc2oc1=O,3.3,-1.4,4,3,14%,-1,7.4
COC(=O)c1ncn(C2OC(COC(C)=O)C(OC(C)=O)C2OC(C)=O)n1 (centres undefined),3.2,-0.8,5,-6,24%,-30,-0.2
CC(C)(C)c1cc(NC(=O)CCl)n(-c2ccccc2)n1,3.1,-0.8,-1,-8,21%,.,-2.1
CCC(Sc1nnc(-c2ccc(C)c(Cl)c2)n1CC)C(=O)Nc1nccs1 (centres undefined),.,1.5,3,.,2%,.,3.4
CCOc1ccc(C2Sc3ccccc3NC3=C2C(=O)OC3)cc1 (centres undefined),0.3,0.9,-7,6,6%,1,0.3
CC1=CC(=O)C(C(C)=Nc2cccc(Cl)c2)C(=O)O1 (centres undefined),.,2.5,-6,.,4%,.,.
CCn1c(SCC(=O)N/N=C(\C)c2ccco2)nnc1-c1ccccc1,-6.6,1.5,-1,14,10%,-12,1.5
CCOc1ccc(S(=O)(=O)N2CCCCCC2)cc1,2.4,-3.6,4,0,3%,-1,-7.3
Cc1cc(NC(=O)c2ccc(N(C)S(=O)(=O)c3ccccc3)cc2)no1,-2.9,-1.2,-11,24,5%,1,4.3
Cc1ccccc1NC(=S)NNC(=O)c1cccc(Br)c1,-2.9,0.7,0,53,0%,.,-3.8
CCCCOCCCNCc1cccn1CCN1CCOCC1,-1.8,0.1,0,-12,.,1,2.9
CCN(CC)S(=O)(=O)c1ccc(S(=O)(=O)Nc2ccc(C(=O)N3CCCC3)cc2)cc1,-0.2,-1.4,8,0,-2%,-7,-4.1
CC(=O)Nc1cccc(O)c1,.,-1.3,-1,.,.,-5,3.6
O=C(O)c1ccc2cccc(Cl)c2c1O,4.5,-2.3,5,-1,?,14,2.9
CCOC(=O)N/N=C/C=C/c1ccccc1[N+](=O)[O-],-0.8,-1.8,-7,11,2%,-4,-2.2
CC1=C(c2ccccc2)C=NNCC1=O,.,2.5,-2,.,-1%,.,.
Cc1cc(=O)oc2c(C)c(OC(C)C(=O)NC(Cc3c[nH]c4ccc(O)cc34)C(=O)O)ccc12 (centres undefined),-3.4,3.6,5,1,.,-6,-3.1
CCOc1ccc(CN2CCN(Cc3cn(CC)nc3C)CC2CCO)cc1 (centres undefined),-0.4,-4.1,-1,-2,5%,-3,0.0
Brc1ccc(Oc2ncc(CN3CCOCC3)s2)cc1,-3.6,0.1,-3,-10,-4%,1,-4.2
CNC(=O)NC(=O)COC(=O)c1n[nH]c2ccccc12,3.2,0.9,-2,-9,-5%,5,-3.4
CC(O)(Cc1cccnc1)c1cccs1 (centres undefined),.,6.2,-2,.,-4%,.,.
COc1ccc(NS(=O)(=O)c2cc(NC(=O)C3=NN(c4ccccc4)C(=O)CC3)ccc2OC)cc1,.,-0.5,34,.,.,2,3.4
Cc1ccccc1Cn1ccc(NC(=O)c2cc3ncc(Br)cn3n2)n1,-2.4,4.7,-4,-2,-2%,.,-0.6
COc1ccc(NC(=O)Nc2ccc(F)cc2)c(C)c1,.,1.7,-2,-3,.,-21,3.1
Cc1ccc([N+](=O)[O-])cc1S(=O)(=O)Nc1ccc(-c2ccc(N3CCOCC3)nn2)cc1,-1.3,2.3,4,4,1%,2,-1.1
O=C(O)CCNc1ccc2c(c1)OCCO2,-1.0,0.7,3,-2,30%,50,-0.7
OCCN(CCO)c1ccc(C(c2ccccc2Cl)c2ccc(N(CCO)CCO)cc2Cl)c(Cl)c1,5.9,0.5,11,8,.,.,.
CN1CCN(S(=O)(=O)c2cccc(C(=O)Nc3cc(C(N)=O)cc(C(N)=O)c3)c2)CC1,-1.6,-0.3,-8,14,.,-8,6.2
Cc1c(C(=O)N2CCN(S(=O)(=O)c3cccs3)CC2)oc2ccc(F)cc12,.,-4.8,-7,.,.,4,4.5
Cc1ccc(S(=O)(=O)/N=C2\C=C(Nc3ccc(O)cc3)C(=O)c3ccccc32)cc1,.,-0.6,74*,.,.,26,-3.9
COC(=O)C1(Cc2cc(-c3ccccc3)no2)CCN(C(=O)OC(C)(C)C)CC1,?,-1.3,1,-6,.,7,-3.2
O=C(COc1ccc(Br)cc1)N/N=C1/SCC(=O)N1Cc1ccccc1,-0.4,1.1,-9,-2,22%,.,2.5
CCN(C(=O)CN1CCN(S(=O)(=O)c2cc(Cl)ccc2Cl)CC1)c1c(N)n(Cc2ccccc2)c(=O)[nH]c1=O,1.7,-0.3,0,10,30%,1,-2.1
COc1ccccc1C1CC(=O)NC(SCC(=O)Nc2ccccc2)=C1C#N (centres undefined),1.0,0.9,-5,-8,-4%,.,.
O=C(Nc1ccc(N2CCCCC2)c(Cl)c1)c1cccnc1,-1.1,9.5,-3,7,-2%,-8,-2.9
Cc1ccc(NC(=O)Cn2nnc(C(=O)NCc3ccco3)c2N)c(C)c1,2.3,-1.2,-7,0,3%,-3,4.3
CCOn1c(=O)c(-c2cccc(Br)c2)[n+]([O-])c2ccccc21,5.1,0.9,-12,2,-2%,25,2.2
O=C(c1ccco1)N1CCN(CCOc2ccc(F)cc2)CC1,2.1,-0.2,0,-4,1%,-5,-4.5
CCOc1ccc(NC(=O)CN(C)C(=O)C2CCCC2)cc1OCC,-1.4,-4.8,-1,-6,-1%,-13,1.0
CCOC(=O)N1CCN(C(=O)CCN2C(=O)c3ccccc3S2(=O)=O)CC1,4.2,-4.2,5,-5,5%,20,0.7
COc1ccc(Cl)cc1C(=O)N(Cc1nc(-c2cccc(C)c2)no1)C(C)C,-2.3,-3.4,16,11,5%,0,-9.2
Cc1c(C(=O)OC(C)C(C)C[N+](C)(C)C)oc2ccccc12 (centres undefined),1.3,1.4,4,1,-1%,-1,-6.1
O=C(COC(=O)c1ccccc1Nc1cccc(C(F)(F)F)c1)NCc1ccco1,-0.7,6.0,3,9,32%,27,-2.3
COCCNC(=S)N(CCCN(C)C)Cc1cc2cc3c(cc2[nH]c1=O)OCCO3,-3.4,4.4,-6,3,.,-20,-0.6
O=C(COc1ccccc1Cl)N1CCc2ccccc2C1,?,2.9,0,-1,-9%,-4,2.8
COc1ccc(C(C(=O)NC2CCCCC2)N(C(=O)CCl)c2ccccc2Cl)cc1 (centres undefined),-1.0,-7.6,23,5,.,12,-0.4
COC(=O)c1cc(CSc2nnc(-c3ccccc3)c(-c3ccccc3)n2)oc1C,-1.8,3.4,-1,-2,7%,61,-1.4
COc1ccc(OC)c(Nc2cc(-c3ccccc3)nc(N)n2)c1,-0.4,.,.,-8,1%,-1,-0.2

# (continued)
SMILES,RanGTP-Impb inh,HNF4A DNA FP,B2AR ag,Calb FLC,Vif A3G,ALR inh,LANA-H2A inh
Cc1cc(C)c(S(C)(=O)=O)c(Oc2cccc(C(F)(F)F)c2)n1,-1.1,-0.9,2,-15,11%,-14,-2.4
COc1ccc(C(=O)NCC(=O)OCc2ccc(F)cc2)cc1,-1.6,0.2,-2,-20,5%,-23,3.4
Cc1ccccc1NC(=O)NCc1ccc2c(c1)OCO2,3.2,0.7,-3,-27,8%,-1,-3.1
O=C(CCN1C(=O)/C(=C\c2ccccc2Cl)SC1=S)N1CCN(c2ccccc2)CC1,?,4.6,3,-7,8%,-8,-1.3
O=C(c1cc(-c2cccc(O)c2)on1)N1CCCCC1,-0.2,-0.5,22,1,3%,.,-6.7
COc1cc(C(=O)N/N=C/c2ccc(OC(=O)c3cccc(C)c3)cc2)ccc1O,0.7,3.8,5,60,.,-21,-0.5
CCOc1ccc(N(CC(=O)Nc2cccc(F)c2)S(=O)(=O)c2c(C)noc2C)cc1,-0.5,0.9,2,0,0%,-10,-1.0
COc1ccc(NC(=O)CCCCC(=O)Nc2ccc(OC)cc2)cc1,0.4,4.0,19,-9,.,-13,-0.6
Cc1cccc(OCc2nnc(SCC(=O)Nc3ccc(N4CCOCC4)cc3)o2)c1,1.4,3.9,5,-1,1%,-2,4.6
O=P(CCNCc1ccco1)(c1ccccc1)c1ccccc1,2.3,2.6,3,-13,19%,.,-2.4
Cc1cccc(NC(=O)CNC(=O)c2ccco2)n1,-4.9,-4.8,3,-8,3%,1,5.3
COC(=O)CCC[C@H]1CC2(C[C@H](CCCO[Si](C)(C)C(C)(C)C)N1C(=O)OC(C)(C)C)OCCO2,.,-5.9,1,.,.,-8,-0.7
COc1ccccc1C(OC(=O)c1cccs1)C(=O)NCc1ccco1 (centres undefined),?,1.7,-1,-4,29%,1,-0.4
c1ccc2nc3c(cc2c1)CCCCCC3,0.7,2.7,-4,-3,0%,-4,2.6
N#C/C(=C\c1ccc[nH]1)C(=O)NC1CC1,-0.1,7.9,-3,-3,0%,-3,-1.1
Cc1ccc(OCC(=O)N/N=C/c2cccc3cccnc23)cc1,-2.8,0.7,6,-10,.,-1,4.6
COc1ccccc1/C=C1\SC(=S)N(CCC(=O)Nc2cccc(O)c2)C1=O,0.8,-0.4,-4,-24,.,-3,-1.6
CC(C)CNC(=O)C1CC(=O)OC12CCCCC2 (centres undefined),3.4,-1.2,4,-3,-2%,-6,8.3
CCOC(=O)c1cc(CC)sc1/N=C/C1=C(O)CCCC1=O,5.1,-0.5,-10,12,-1%,8,3.8
CCN(CC)c1ccc(NC(=O)COC(=O)CCC(=O)c2cccs2)cc1,.,2.6,-2,.,.,99*,6.0
COc1ccc2nc(SCC(=O)c3ccco3)[nH]c2c1,?,3.9,-5,?,9%,-4,1.4
CCN(CC)CCNc1nc2c(c(=O)[nH]c(=O)n2C)n1CCCc1ccccc1,-2.1,-1.6,-15,0,.,20,-4.4
COc1cccc(NC(=O)CN(C)C(=O)CNC(=O)c2ccccc2F)c1,0.4,3.0,-2,4,-2%,-8,0.1
O=C(Cc1ccccc1)NC(=S)Nc1ccc(N2CCCCC2)cc1,4.5,5.9,-4,1,-4%,2,2.3
CCN(CC)C(=S)Nc1ccc(Cl)c(Cl)c1,3.1,-2.2,6,-9,.,-2,-3.5

# Random draw from the library; any-hit rate near 6.3%.
